INS promoter inh: TRM-6 insulin promoter activity inhibition. TRM-6 cells (human fetal islet line), insulin promoter-eGFP reporter, imaging; reporter expression induced with tamoxifen. inhibition, % at 2 µM. 0.9% of 130,000 active. AID 1273;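 active = inhibition above the mean plus 3 SD, with well images judged a real hit on visual review, cut at about 60% in these data, passing the limit was not always enough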
HSV replic up: HSV replication enhancement; HSV replication augmentation in cells, fold increase; maximum fold increase; 0.005% of 220,000 active;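 active = peak rise of 1.5-fold or more in the series; tested in PC3 cells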;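 note: first round at 10 µM; read as green reporter fluorescence; hits show the peak of a series up to 25 µM; 1 = signal of infected wells without compound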
RGS16-Gao HTS: regulators of human RGS16-Galphao interaction; O15492+P09471; bead-based flow cytometry RGS16-Galphao binding, fluorescence; actives lie on both sides; binding response (% of control), % at 10 µM; 0.38% of 220,000 active;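 active = below 25% or above 175%, edge rows of some plates excepted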;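 note: Galphao activated by GDP with aluminum fluoride before binding; 100% = wells without compound and 0% = beads without RGS; some results beyond the cut were filed as inactive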
Target sequence (O15492 whole entry, looked up): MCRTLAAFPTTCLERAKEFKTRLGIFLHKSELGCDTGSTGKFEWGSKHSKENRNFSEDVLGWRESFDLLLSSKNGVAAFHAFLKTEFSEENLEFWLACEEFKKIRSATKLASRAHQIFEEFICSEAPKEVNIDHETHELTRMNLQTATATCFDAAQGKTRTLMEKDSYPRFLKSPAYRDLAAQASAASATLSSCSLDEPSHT
Target sequence (P09471 whole entry, looked up): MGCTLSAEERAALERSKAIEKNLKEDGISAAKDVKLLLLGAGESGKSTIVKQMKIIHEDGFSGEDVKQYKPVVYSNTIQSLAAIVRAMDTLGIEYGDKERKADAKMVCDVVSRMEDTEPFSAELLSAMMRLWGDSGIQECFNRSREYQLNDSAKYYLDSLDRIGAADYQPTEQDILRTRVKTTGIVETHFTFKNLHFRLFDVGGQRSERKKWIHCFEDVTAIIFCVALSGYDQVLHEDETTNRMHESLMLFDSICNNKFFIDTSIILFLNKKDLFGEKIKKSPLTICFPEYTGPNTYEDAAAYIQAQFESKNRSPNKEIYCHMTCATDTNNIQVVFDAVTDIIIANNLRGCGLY
PKD1 inh: blocks activity of human protein kinase D1; Q15139; PKD1 kinase fluorescence polarization assay; inhibition, %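 (about 10 µM by stock and volumes)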; 0.056% of 200,000 active; AID 797;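 active = inhibition of 50% or more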;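 note: controls were vehicle for no effect and a reference inhibitor for full effect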
GALR2 ag: GALR2 (human) receptor agonism; activation, %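 (tested at 5 µM)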; O43603; 0.48% of 140,000 active; GALR2-expressing cells, agonist activation read-out;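 active = above mean plus 3 SD of all compounds, about 5% in these data, not always enough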;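 note: 0% = vehicle buffer wells and 100% = reference agonist at full effect; tested in CHO reporter cells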
Target sequence (O43603 whole entry, looked up): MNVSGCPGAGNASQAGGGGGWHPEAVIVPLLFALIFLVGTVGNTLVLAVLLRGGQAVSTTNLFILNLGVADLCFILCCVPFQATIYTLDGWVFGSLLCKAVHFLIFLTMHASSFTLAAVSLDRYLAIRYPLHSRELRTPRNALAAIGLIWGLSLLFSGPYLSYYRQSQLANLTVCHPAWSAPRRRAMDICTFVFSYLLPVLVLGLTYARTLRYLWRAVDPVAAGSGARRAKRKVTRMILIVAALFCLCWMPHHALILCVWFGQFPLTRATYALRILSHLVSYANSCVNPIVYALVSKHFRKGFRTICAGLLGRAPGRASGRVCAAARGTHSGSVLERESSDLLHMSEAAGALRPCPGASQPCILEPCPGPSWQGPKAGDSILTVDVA
INS promoter inh cell count: recorded beside INS promoter inh, whose call it bears; normalized cell count, %; measured here: cell count, toxicity; reference of the scale not given here;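 cells exposed to compound for 48 h; stained nuclei by imaging scaled within each plate; lower means fewer cells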
HSV replic up primary fold: recorded beside HSV replic up, whose call it bears; fold increase; compound at 10 µM; measured here: primary screen fold increase 10 uM; tested in PC3 cells;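 GFP signal in the first replicate; 1 = infected wells without compound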
* = called active by the depositor. Hits appear at their usual frequency (roughly 1.1% active in at least one column).

`CCOc1ccc(S(=O)(=O)N(CC(=O)NCC(F)(F)F)Cc2ccco2)cc1` gave INS promoter inh 23, RGS16-Gao HTS 101, PKD1 inh -3, GALR2 ag -1.1 and INS promoter inh cell count 48.
`COC(OC)c1ccc(C#N)c(=O)[nH]1` gave HSV replic up inactive, RGS16-Gao HTS 101, PKD1 inh -3 and HSV replic up primary fold 1.1.
C/C(CC(=O)Nc1ccc(Cl)cc1)=N\NC(=O)C(=O)NCCO was read as HSV replic up inactive, RGS16-Gao HTS 110, PKD1 inh -7, GALR2 ag -1.3 and HSV replic up primary fold 1.
`CCC(C(=O)OCC(=O)Nc1ccccc1-c1ccccc1)c1ccccc1` (centres undefined) gave INS promoter inh 20, HSV replic up inactive, RGS16-Gao HTS 102, PKD1 inh -5, GALR2 ag -0.8, INS promoter inh cell count 101 and HSV replic up primary fold 1.1.
COC(CNC(=O)c1ccc(-n2c(=S)[nH]c3ccccc3c2=O)cc1)OC was read as INS promoter inh 7, HSV replic up inactive, RGS16-Gao HTS 102, PKD1 inh -4, INS promoter inh cell count 103 and HSV replic up primary fold 1.
Screening O=C(Nc1ccccc1N1CCN(c2ccccc2)CC1)c1cccc(F)c1 returned HSV replic up inactive, RGS16-Gao HTS 100, PKD1 inh 0, GALR2 ag -1.1 and HSV replic up primary fold 1.1.
N#Cc1nc(-c2ccccc2)oc1NCCCn1ccnc1 was read as INS promoter inh 38, HSV replic up inactive, RGS16-Gao HTS 105, PKD1 inh 6, INS promoter inh cell count 118 and HSV replic up primary fold 0.89.
For CC(C)C12CN3CC(C(C)C)(CN(C1)C3c1ccc3c(c1)OCO3)C2=O (centres undefined) the results were INS promoter inh 3, HSV replic up inactive, RGS16-Gao HTS 105, PKD1 inh 0, GALR2 ag 3.8, INS promoter inh cell count 121 and HSV replic up primary fold 0.95.
Screening Cc1noc(C)c1C(=O)OCC(=O)Nc1cc(S(=O)(=O)N2CCOCC2)ccc1Cl returned INS promoter inh -22, HSV replic up inactive, RGS16-Gao HTS 97, PKD1 inh -6, INS promoter inh cell count 96 and HSV replic up primary fold 1.
For CC(=O)Nc1ccc2c(c1)C(=O)N(c1cccc(C)c1)C2=O the results were HSV replic up inactive, RGS16-Gao HTS 87 and HSV replic up primary fold 0.86.
For COc1ccc(-c2c[n+](CC(=O)c3ccccc3)c3n2CCCCC3)cc1 the results were HSV replic up inactive, RGS16-Gao HTS 86 and HSV replic up primary fold 0.95.
For Cc1ccc(C)c(Nc2c([N+](=O)[O-])cc(C(=O)N3CC(=O)Nc4ccccc43)cc2[N+](=O)[O-])c1 the results were INS promoter inh -25, HSV replic up inactive, RGS16-Gao HTS 107, PKD1 inh -11, GALR2 ag -1.2, INS promoter inh cell count 95 and HSV replic up primary fold 0.74.
CCOc1ccc(S(=O)(=O)Nc2ccccc2C(=O)N2CCCC2)cc1 was read as HSV replic up inactive, RGS16-Gao HTS 104, PKD1 inh -6 and HSV replic up primary fold 1.
For CN(C)S(=O)(=O)c1ccc(C(=O)Nc2cc(=O)n(C)c(=O)n2C)cc1 the results were INS promoter inh -12, HSV replic up inactive, RGS16-Gao HTS 104, PKD1 inh 3, GALR2 ag -0.4, INS promoter inh cell count 96 and HSV replic up primary fold 0.87.
For CCOC(=O)c1ccccc1NC(=O)Cn1cnc2c(cnn2-c2ccc(OC)cc2)c1=O the results were PKD1 inh -3 and GALR2 ag -0.7.
Cc1ccc(/C=C/C(=O)c2c(C)nc3ccccn23)cc1 was read as HSV replic up inactive, RGS16-Gao HTS 101, PKD1 inh -12, GALR2 ag 0.0 and HSV replic up primary fold 0.85.
Screening COc1ccc(NC(=O)C2CCOC(C)(C)C2)cc1 (centres undefined) returned HSV replic up inactive, RGS16-Gao HTS 108 and HSV replic up primary fold 1.
`CCC(C)[C@H](NC(=O)Nc1cccc(OC)c1)C(=O)OC` (some centres undefined) gave INS promoter inh -11, HSV replic up inactive, RGS16-Gao HTS 76, PKD1 inh -9, GALR2 ag -1.4, INS promoter inh cell count 120 and HSV replic up primary fold 1.
COc1cc(Cl)c(C)cc1NC(=O)CSC was read as INS promoter inh -38, HSV replic up inactive, RGS16-Gao HTS 108, PKD1 inh -6, GALR2 ag -1.0, INS promoter inh cell count 138 and HSV replic up primary fold 1.1.
For CC(OC(=O)c1cc(=O)[nH]c2ccccc12)C(=O)c1ccccc1 (centres undefined) the results were HSV replic up inactive, RGS16-Gao HTS 109, PKD1 inh -5 and HSV replic up primary fold 0.97.
Screening CCOC(=O)C1(Cc2ccc(OC)cc2)CCN(C(=O)c2ccoc2C)CC1 returned HSV replic up inactive, RGS16-Gao HTS 99, PKD1 inh -9 and HSV replic up primary fold 1.1.
For O=C1COc2ccc(C(=O)/C=C/c3ccccc3)cc2N1 the results were INS promoter inh -69, HSV replic up inactive, RGS16-Gao HTS 77, PKD1 inh -7, GALR2 ag 0.4, INS promoter inh cell count 80 and HSV replic up primary fold 0.71.
For CCC(=NCc1ccc(Cl)c(Cl)c1)c1nc(-c2ccco2)oc1O the results were INS promoter inh -36, HSV replic up inactive, RGS16-Gao HTS 103, PKD1 inh -3, GALR2 ag 0.3, INS promoter inh cell count 137 and HSV replic up primary fold 0.88.
For COC(=O)CCCC1=CC2=C(c3ccccc3)C(=O)C(C)(OC(=O)C3CCCC3)C(=O)C2=CN1CCc1c[nH]c2ccccc12 (centres undefined) the results were HSV replic up inactive, RGS16-Gao HTS 104 and HSV replic up primary fold 0.77.
C#CCOCCOCCOCCNc1nc(N2CCOCC2)nc(N2CCN(C(=O)[C@H](CCC(=O)O)n3cc(C(N)[C@H](C)CC)nn3)CC2)n1 (some centres undefined) was read as HSV replic up inactive, RGS16-Gao HTS 97, PKD1 inh 2 and HSV replic up primary fold 1.
Screening COc1cc(SC)ccc1C(=O)Nc1ccc(Cl)cn1 returned INS promoter inh -39, HSV replic up inactive, RGS16-Gao HTS 103, PKD1 inh -3, INS promoter inh cell count 110 and HSV replic up primary fold 0.81.
For Cc1ccc(N(CCC(=O)O)S(=O)(=O)c2ccc(C)cc2)cc1 the results were INS promoter inh 0, HSV replic up inactive, RGS16-Gao HTS 109, PKD1 inh -2, GALR2 ag 0.4, INS promoter inh cell count 131 and HSV replic up primary fold 0.96.
Screening Cc1nc2ccccc2n1CC(=O)OCC(=O)NCc1ccccc1 returned HSV replic up inactive, RGS16-Gao HTS 106, PKD1 inh -3 and HSV replic up primary fold 1.
For CCCS(=O)(=O)c1c(S(=O)(=O)CCC)c2c(C)cccn2c1C(=O)OC the results were INS promoter inh 29, HSV replic up inactive, RGS16-Gao HTS 101, PKD1 inh -4, GALR2 ag -0.4, INS promoter inh cell count 92 and HSV replic up primary fold 0.78.
Screening N#C/C(=C1/CCCCCN1)c1nnc2n1CCCCC2 returned INS promoter inh 30, HSV replic up inactive, RGS16-Gao HTS 96, PKD1 inh -3, GALR2 ag 0.0, INS promoter inh cell count 107 and HSV replic up primary fold 1.
`COc1ccc(CN(C)C(C)C(=O)NC2CCCc3ccccc32)cc1` (centres undefined) gave INS promoter inh -50, HSV replic up inactive, RGS16-Gao HTS 195, PKD1 inh -8, INS promoter inh cell count 85 and HSV replic up primary fold 1.1.
For COc1ccccc1OCc1ccc(C(=O)Nc2ccncc2)o1 the results were INS promoter inh 13, HSV replic up inactive, RGS16-Gao HTS 99, PKD1 inh -7, GALR2 ag -3.1, INS promoter inh cell count 177 and HSV replic up primary fold 1.1.
Screening Cc1ccc(C(=O)COc2ncnc3cc(Cl)ccc23)cc1 returned HSV replic up inactive, RGS16-Gao HTS 96 and HSV replic up primary fold 1.
For NS(=O)(=O)c1ccc(CNC(=O)/C=C/c2cccc(Cl)c2)cc1 the results were INS promoter inh -45, HSV replic up inactive, RGS16-Gao HTS 103, PKD1 inh 1, GALR2 ag 0.0, INS promoter inh cell count 98 and HSV replic up primary fold 0.89.
`O=C(CSc1nc2ccccc2n1-c1ccccc1)Nc1ncc(Cl)cc1Cl` gave RGS16-Gao HTS 99, PKD1 inh 1 and GALR2 ag -0.1.
For CCn1c(SCC(=O)Nc2cc(NC(C)=O)ccc2OC)nnc1-c1ccccn1 the results were INS promoter inh -12, HSV replic up inactive, RGS16-Gao HTS 114, PKD1 inh -2, GALR2 ag -0.2, INS promoter inh cell count 108 and HSV replic up primary fold 0.97.
For O=C(COc1ccccc1)Nc1ccc(S(=O)(=O)NCc2ccco2)cc1 the results were HSV replic up inactive, RGS16-Gao HTS 100, PKD1 inh -10, GALR2 ag -0.9 and HSV replic up primary fold 0.77.
`COC(=O)c1cc(-c2c(C)oc3cc(O)ccc3c2=O)c(C)o1` gave INS promoter inh -14, HSV replic up inactive, RGS16-Gao HTS 97, PKD1 inh -4, GALR2 ag -2.3, INS promoter inh cell count 140 and HSV replic up primary fold 0.94.
For O=C(NCC(c1cccnc1)N1CCN(c2ccc(F)cc2)CC1)c1ccc(F)cc1 (centres undefined) the results were INS promoter inh 68, HSV replic up inactive, RGS16-Gao HTS 100, PKD1 inh -16, GALR2 ag 0.6, INS promoter inh cell count 39 and HSV replic up primary fold 0.96.
For Cc1ccc(C(=O)N/C(=C/c2cccs2)C(=O)N2CCCCCC2)cc1 the results were INS promoter inh -23, HSV replic up inactive, RGS16-Gao HTS 89, PKD1 inh -9, GALR2 ag -1.8, INS promoter inh cell count 95 and HSV replic up primary fold 1.2.
CC1CC(=O)Nc2ccccc2N1S(=O)(=O)c1cccc(F)c1 (centres undefined) was read as HSV replic up inactive, RGS16-Gao HTS 101 and HSV replic up primary fold 1.
For O=C(NCc1ccccc1)c1ncn[nH]1 the results were HSV replic up inactive, RGS16-Gao HTS 101 and HSV replic up primary fold 0.93.
Screening O=C(CN1CCOCC1)Nc1c2c(nc3c1CCC3)CCC2 returned INS promoter inh 38, HSV replic up inactive, RGS16-Gao HTS 133, PKD1 inh -16, GALR2 ag -2.5, INS promoter inh cell count 92 and HSV replic up primary fold 0.87.
Screening C=CCOc1c(CNc2ccc(S(N)(=O)=O)cc2)cccc1OC returned INS promoter inh -378, HSV replic up inactive, RGS16-Gao HTS 106, PKD1 inh 7, GALR2 ag -1.2, INS promoter inh cell count 38 and HSV replic up primary fold 0.88.
For COC1CCCCC1Nc1cc(C)cc(C)c1 (centres undefined) the results were INS promoter inh -35, HSV replic up inactive, RGS16-Gao HTS 114, PKD1 inh 1, GALR2 ag -0.9, INS promoter inh cell count 98 and HSV replic up primary fold 1.1.
Cc1cc(C)n(CCNC(=O)CC2C(=O)NCCN2CC2CCCCC2)n1 (centres undefined) was read as HSV replic up inactive, RGS16-Gao HTS 103, PKD1 inh -5 and HSV replic up primary fold 0.98.
For CCOC(=O)CSc1nnc(CNC(=O)c2cc(OC)c(OC)c(OC)c2)n1C the results were HSV replic up inactive, RGS16-Gao HTS 106, PKD1 inh 4, GALR2 ag -2.0 and HSV replic up primary fold 0.96.
For O=S(=O)(Cc1ccccc1)N1CCCC1 the results were HSV replic up inactive, RGS16-Gao HTS 103, PKD1 inh 5, GALR2 ag -0.3 and HSV replic up primary fold 1.
For CC(C)c1nnc(NC(=O)CSc2nc3ccccc3[nH]2)s1 the results were HSV replic up inactive, RGS16-Gao HTS 101, PKD1 inh 1 and HSV replic up primary fold 1.
Screening Cc1ccc(Cn2ncc3c(N4CCN(C)CC4)ncnc32)cc1 returned HSV replic up inactive, RGS16-Gao HTS 100, PKD1 inh -9 and HSV replic up primary fold 0.86.
Screening Cc1cc(C)c2cc(CN(CCO)C(=O)Nc3ccc(Cl)cc3)c(=O)[nH]c2c1 returned INS promoter inh 4, HSV replic up inactive, RGS16-Gao HTS 103, PKD1 inh 6, GALR2 ag -0.5, INS promoter inh cell count 107 and HSV replic up primary fold 0.8.
For O=C(NCCN1CCOCC1)c1cccn2c(=O)c3c4c(sc3nc12)CCCC4 the results were HSV replic up inactive, RGS16-Gao HTS 100 and HSV replic up primary fold 1.
C=CCNC(=S)NNC(=O)CCC(O)COCCC(C)C (centres undefined) was read as HSV replic up inactive, RGS16-Gao HTS 105, PKD1 inh 3 and HSV replic up primary fold 1.1.

4 compounds from above, ordered by molecular weight, smallest number first.
For O=C(NCc1ccccc1)c1ncn[nH]1 the results were HSV replic up inactive, RGS16-Gao HTS 101 and HSV replic up primary fold 0.93.
Screening O=C(CN1CCOCC1)Nc1c2c(nc3c1CCC3)CCC2 returned INS promoter inh 38, HSV replic up inactive, RGS16-Gao HTS 133, PKD1 inh -16, GALR2 ag -2.5, INS promoter inh cell count 92 and HSV replic up primary fold 0.87.
C=CCNC(=S)NNC(=O)CCC(O)COCCC(C)C (centres undefined) was read as HSV replic up inactive, RGS16-Gao HTS 105, PKD1 inh 3 and HSV replic up primary fold 1.1.
For CCOC(=O)CSc1nnc(CNC(=O)c2cc(OC)c(OC)c(OC)c2)n1C the results were HSV replic up inactive, RGS16-Gao HTS 106, PKD1 inh 4, GALR2 ag -2.0 and HSV replic up primary fold 0.96.

Bioassay records from PubChem.
